Screening results (PubChem)
PK Bst – Pyruvate Kinase; Potency, µM; actives 1.2% (n = 51,000); partly purified Bacillus stearothermophilus pyruvate kinase, luminescence ATP production; ribose 5-phosphate activator present at AC10; in the data active means potency below about 11 µM; inconclusive means mostly about 12 µM to 25 µM; inactive means weaker than that;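 the screen sought inhibitors and activators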;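 note: potency is the fitted concentration of half-maximal effect; scaled between full activation by ribose 5 phosphate and full inhibition by luteolin; about four in five hits inhibit and the cells do not say which; series up to 57 µM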
TsaE inh – qHTS Assay for Inhibitors of YjeE; actives 0.05% (n = 71,000); purified YjeE, fluorescence polarisation of a bound ADP probe; tRNA threonylcarbamoyladenosine biosynthesis protein TsaE (Escherichia coli (strain …; AID 605, 2007; Potency, µM; active = well fitted falling curve; inconclusive = weaker or top-dose-only fall, or a rising curve; inactive = flat or poorly fitted curve;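 note: top concentration of the series not given in the record; excess ADP was the control for the full effect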
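Purified YjeE (10 uM) with BODIPY Texas Red-labeled ADP probe (2 uM); compounds pin-transferred, 15 min at room temperature. Binding inhibition read as decreased fluorescence polarization; ADP titration as control.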
Active calls of the source: *; i = inactive; ? = inconclusive; / = not tested or not shown. Only part of the results is shown; the hit share may differ from the screen's.

SMILES	TsaE inh	PK Bst
COc1ccccc1CNc1cc(-c2ccc(C(=O)N(C)C)cc2)ncn1	i	/
CCC1SC2=NC(C)=C(C(=O)OCCOC)C(c3ccc(C(=O)OC)cc3)N2C1=O (stereo not drawn)	/	>26
Nc1c(C(=O)NCCN2CCOCC2)c2nc3ccccc3nc2n1-c1cccc(F)c1	i	>57
CC1(C)CC2CC(C)(CN2C(=O)CN2C(=O)c3ccccc3C2=O)C1 (stereo not drawn)	i	>57
CC(C)(Oc1ccc(Cl)cc1)C(=O)Nc1ccc2oc(-c3ccncc3)nc2c1	i	>57
CCOC(=O)c1[nH]c(C)c(C(=O)N2CCN(C(=O)OCC)CC2)c1CC	i	>57
O=C(CC(c1ccccc1)c1cc(Cl)ccc1O)N1CCOCC1 (stereo not drawn)	i	>57
CCCN1C(=O)C(O)(CC(=O)c2cccc(OC)c2)c2ccccc21 (stereo not drawn)	i	>57
COc1ccc(N2CCN(C(=O)CCn3nnc4ccccc43)CC2)cc1	i	>57
CN(C)c1nc(-c2ccccc2C(F)(F)F)nc2ccccc12	i	/
C[N+]1(NCC[N@@+]2(C)CCc3ccccc3C2)CCCCC1	i	/
CC(=O)NC(CCS(C)(=O)=O)C(=O)Nc1ccccc1C (stereo not drawn)	i	>57
COc1cc(OC)cc(-c2nnc(SCc3c(F)cccc3Cl)o2)c1	i	>57
Cc1ccc(C(=O)Nc2nc3ccccc3c(=O)s2)cc1	i	6.8*
CC(C)C(=O)Nc1ccc(N2CCN(C(=O)c3cccs3)CC2)cc1	i	>57
COc1ccc(C2CC(C(F)(F)F)n3nc(C(=O)NCc4cn(C)nc4C)c(Cl)c3N2)cc1 (stereo not drawn)	i	>57
O=C(CSc1nnc(-c2cccs2)n1-c1ccccc1)N1CCCC1	i	>57
CS(=O)(=O)N(CC(=O)NCC1CCCO1)c1ccc(F)c(Cl)c1 (stereo not drawn)	i	>57
Cc1ccccc1-c1cncnc1N(C)Cc1ccco1	i	/
Cc1cccc(-n2nnnc2SC(C)C(=O)NCCC2=CCCCC2)c1 (stereo not drawn)	i	>11
O=C1N=C(N2CCOCC2)S/C1=C1\C(=O)N(Cc2ccccc2)c2ccccc21	i	/
CC(C)(C)NC(=O)C(c1ccccn1)N(C(=O)c1ccc2c(c1)OCCO2)C1CCCC1 (stereo not drawn)	i	>57
CCC(=O)N1CCc2cc(S(=O)(=O)NCCC(=O)N3CCN(c4ccccn4)CC3)ccc21	i	>57
CN(C)C=Nc1c(Br)cc(Br)c2nonc12	i	>57
COc1c2c(nc3ccccc13)O[C@@H]([C@@](C)(O)CO)C2	i	/
CCOC(=O)N1CCN(c2cc(=O)n(-c3ccc(OCC)cc3)c(=O)[nH]2)CC1	i	>57
Cc1ccc(N2CCN(S(=O)(=O)N(C)C)CC2)cc1Cl	i	>57
COc1cc(S(=O)(=O)N2CCOCC2)cc(C(=O)c2nccn2C)c1OC	i	>57
Cc1c(C#N)c2ccccc2n1CCOc1ccccc1F	i	/
O=C(O)C1C2C=CC(O2)C1C(=O)NCc1ccc2c(c1)OCO2 (stereo not drawn)	i	>57
CCn1c(-c2c[nH]c3ccccc23)n[nH]c1=S	i	/
COc1ccccc1C1C(C(=O)NCc2ccccc2)=C(C)Nc2ncnn21 (stereo not drawn)	i	>57
CCCCCCn1c(CN2CCCCC2)nc2c1c(=O)n(C)c(=O)n2C	i	>57
CC(=O)Nc1ccc(C(=O)Nc2ccc(S(=O)(=O)NCC3CCCO3)cc2)cc1 (stereo not drawn)	i	>57
CC(=O)c1ccc(OCC(C)C)c(CN2CCCCC2)c1	i	>57
COc1ccc2c(c1OC)C(=O)OC2CC(=O)c1ccc(O)cc1 (stereo not drawn)	i	/
FC(F)(F)c1cc(CN2CCC3(CCNCC3)CC2)cc(C(F)(F)F)c1	i	/
CNc1nc(CC(C)=O)ns1	i	>57
CCOC(=O)N1CCN(Cc2nc3c(c(=O)n(C)c(=O)n3C)n2Cc2ccccc2)CC1	i	/
COC(=O)c1cccc(NC(=O)Cc2coc3cc(OC)ccc23)c1	i	>57
COc1ccc(OC)c(C2/C(=C(/O)c3cnn(-c4ccccc4)c3C)C(=O)C(=O)N2CCN(C)C)c1 (stereo not drawn)	/	>26
C=CCn1c(SCC(=O)N2CCN(c3ccc(F)cc3)CC2)nnc1-c1cccs1	i	/
CC(C)C[C@@H](CC(=O)N[C@@H](CCC(=O)O)CC(=O)O)NC(=O)[C@@H]1CNCC[C@H]1NC(=O)C[C@H](CCCN)NC(=O)C[C@H](CO)NC(=O)[C@@H]1CCCC[C@H]1N	i	/
C=CCC(NCc1ccco1)c1ccc(OC)cc1OC (stereo not drawn)	i	>57
COc1ccc(C2CC(=O)C3=C(C2)Nc2ncnn2C3c2ccccc2C)cc1 (stereo not drawn)	i	>57
CCN(CC)CCCN(Cc1cc2cc3c(cc2[nH]c1=O)OCCO3)C(=O)Nc1ccc(F)cc1	i	/
CCOC(=O)n1ccc(C(=O)Nc2ccccc2F)n1	i	>57
CCCCCNC(=O)c1ccc2c(=O)[nH]c3c(C(=O)NCC4CCCO4)sc(=S)n3c2c1 (stereo not drawn)	i	>57
COc1cc(=O)n(C)c2c(OC[C@@H](O)C(C)(C)O)cccc12	i	/
COCc1cc(CN2CCCC2)c(O)c2ncccc12	i	/
Cc1cc(C)n(C(=O)c2cccc(S(=O)(=O)N3CCOCC3)c2)n1	i	>57
O=c1c(O)c(-c2ccccc2)oc2cc(O)cc(O)c12	i	/
Nn1c(SCC(=O)N2CCCc3ccccc32)nnc1-c1ccc(Cl)cc1	i	>57
NC(=O)C(Cc1ccccc1)NS(=O)(=O)c1ccc(N2CCCC2=O)cc1 (stereo not drawn)	i	>57
CSCCC(=O)Nc1ccc(C(C)=O)cc1	i	/
O=C(C1CC1)N1CCC(c2nc(-c3ccc(S(=O)(=O)NCC4CCCO4)cc3)no2)CC1 (stereo not drawn)	i	>57
COc1ccc(S(=O)(=O)N2CCC(N3CCCCC3)CC2)cc1	/	>26
CC1CCN(CC(=O)NCc2ccccc2)CC1	i	>57
COC(=O)Cn1c(C(=O)N2CCCC2)cc2c1C[C@H]1CN(C(=O)c3ccccc3)[C@@](Cc3ccc(F)cc3)(C(=O)OC)[C@@H]21	i	/
CCOc1ccc2nc(NC(=O)C(NS(=O)(=O)c3cccs3)C(C)C)sc2c1 (stereo not drawn)	i	>57

Next entries follow:
SMILES	TsaE inh	PK Bst
Cc1cc(C)n2cc(CSc3nnc(N)s3)nc2n1	i	>11
Cc1ccccc1NC(=O)C(C#N)Cc1cccnc1 (stereo not drawn)	i	>57
O=C(Nc1ccc(Cl)cc1C(=O)Nc1ccc(Br)cn1)c1ccco1	i	>57
Cn1c(=O)c2c(SCc3cccnc3)nc(CC(C)(C)C)nc2n(C)c1=O	i	/
CC(=O)CCc1c(C)c2cccc(C)c2[nH]c1=O	i	/
O=C(NCc1ccco1)c1ccc(Br)c(S(=O)(=O)N2CCCCC2)c1	i	/
Cc1cc(C)cc(NC(=O)CN(C)S(=O)(=O)c2cnc[nH]2)c1	i	>57
O=S(=O)(NCCOCCNS(=O)(=O)c1ccccc1)c1ccccc1	i	/
C=C(C)c1cccc(C(C)(C)NC(=O)N2CCN(C)CC2)c1	i	>57
COn1c(C)c(C(C)=O)c2c3nonc3ccc21	i	>57
CC(=O)CSc1ncnc2c1oc1ccccc12	i	/
O=S(=O)(c1cccs1)N1CN(Cc2cccs2)c2nc3ccccc3nc21	i	>57
CCN(CC)c1nc2nonc2nc1N(CC)CC	i	>57
CCOC(=O)C1CCN(C(=O)C2CCN(S(=O)(=O)N3CCCC3)CC2)CC1	i	>57
CSCCC(NC(=O)c1cc(C(C)(C)C)oc1C)C(=O)O (stereo not drawn)	i	>57
CN(Cc1ccccc1)Cc1nc2c(c(=O)n(C)c(=O)n2C)n1Cc1ccc(Cl)cc1	i	>57
COc1ccc(OC)c(NC(=O)c2cc3n(n2)C(C(F)(F)F)CC(c2ccc4c(c2)OCO4)N3)c1 (stereo not drawn)	i	>57
O=C(Nc1ccc(N2CCOCC2)cc1)C1CCCN(S(=O)(=O)c2ccccc2)C1 (stereo not drawn)	i	>57
CC(=O)N(C)c1ccc(NC(=O)c2cnn(C)c2)cc1	i	>57
CN(C)CCSS(=O)(=O)O	i	/
CC(OC(=O)c1ccco1)C(=O)NC1CCCCC1 (stereo not drawn)	i	>57
CCOc1ccc(OCC)c(NC(=O)c2ccc(CNc3c(N4CCOCC4)c(=O)c3=O)cc2)c1	?	>57
Cc1nn(Cc2ccc(F)cc2)c(C)c1NC(=O)c1cc(-c2ccco2)on1	i	>57
Clc1ccc(OCc2nnc(SCCN3CCCCC3)n2Cc2ccco2)cc1	i	>57
CC1(C(=O)O)CCC(C(=O)NCCc2ccccc2)C1(C)C (stereo not drawn)	i	/
CCn1c2ccccc2c2nnc(SCC(=O)NCc3cccs3)nc21	i	>57
CCn1c(CNC(=O)c2ccc(OC)cc2)nnc1SCC(=O)c1ccccc1	i	>57
CCOC(=O)c1cc2sccc2n1CC(=O)N1CCCc2ccccc21	i	>11
Cc1nc2c(-c3ccccc3)c(C)nn2c(C)c1CCC(=O)NCc1ccco1	i	/
NC(=O)NO	i	/
COc1ccc(-n2c(C)cc(C(=O)CSc3nnc(-c4cccs4)o3)c2C)cc1	i	>57
O=C(NCCN1CCCC1)C1COc2ccccc2O1 (stereo not drawn)	i	>57
COc1ccccc1-c1cn(S(=O)(=O)c2ccc(F)cc2)nc1N	i	>57
C=CCNc1sc(C(=O)C(C)(C)C)c(N)c1C#N	i	>57
CCOCCCNS(=O)(=O)c1ccc2c(c1)CCN2C(=O)CC	i	>57
CCSc1nnc(NC(=O)c2csc3c2CCC(C)C3)s1 (stereo not drawn)	i	>57
Cn1nnnc1SCC(=O)N1CCN(C(c2ccccc2)c2ccccc2)CC1	i	>57
COc1cc(O)c(NC(C)=O)c2nonc12	i	/
O/N=C(\c1ccc(Cl)cc1)c1cc2ccccc2o1	i	/
CC1(C)CC(CCC(=O)Nc2ccccc2Cl)C(=O)O1 (stereo not drawn)	i	>57

Gathered by group: those above containing a tert-butyl group (4)
SMILES	TsaE inh	PK Bst
CC(C)(C)NC(=O)C(c1ccccn1)N(C(=O)c1ccc2c(c1)OCCO2)C1CCCC1 (stereo not drawn)	i	>57
Cn1c(=O)c2c(SCc3cccnc3)nc(CC(C)(C)C)nc2n(C)c1=O	i	/
CSCCC(NC(=O)c1cc(C(C)(C)C)oc1C)C(=O)O (stereo not drawn)	i	>57
C=CCNc1sc(C(=O)C(C)(C)C)c(N)c1C#N	i	>57

Remaining list, next part.
SMILES	TsaE inh	PK Bst
COc1ccc(-c2nn(CCC(=O)O)cc2CCC(=O)O)cc1	i	>57
C[C@]12CC[C@@H]3c4ccc(O)cc4CC[C@H]3[C@@H]1CC[C@@H]2O	i	/
O=C(NCCc1ccccc1)C1CC(c2ccccc2O)=NO1 (stereo not drawn)	i	>57
CC1(C)C=Cc2c(c3ccccc3[nH]c2=O)O1	i	>57
Cc1cn([C@H]2C[C@H](O)[C@@H](COC(N)=O)O2)c(=O)[nH]c1=O	i	/
COc1ccc(CN(CCCN2CCOCC2)S(=O)(=O)N(C)C)cc1OC	i	>57
Cc1[nH]c2ccccc2c1Cc1nnc(SCC(N)=O)o1	i	/
Clc1ccc(Cl)c2sc(N3CCOCC3)nc12	i	>57
CCOC(=O)CSc1ncnc2c1cnn2-c1ccc(C)cc1	i	/
COc1ccc(-c2noc(CCCOc3ccccc3)n2)cc1OC	i	>57
O=c1c2c(nc3c(-c4ccccc4)c[nH]n13)CCCC2	i	/
Cc1oc(-c2ccccc2Cl)nc1CSCC(=O)N1CCCC1	i	>57
CCOC(=O)C(C(=O)OCC)C(C#N)c1ccccc1 (stereo not drawn)	i	>57
COc1ccccc1C(=O)Nc1ccc2c(c1)OCCO2	i	i
Cc1cccc2cc(CN(Cc3ccc(F)cc3)Cc3nnnn3C3CCCC3)c(=O)[nH]c12	i	>57
O=C(Nc1nnc(Cc2ccccc2)s1)c1cccs1	i	>57
Cc1ccc(C2C3CSCC=C3C(C#N)=C(N)C2(C#N)C#N)cc1 (stereo not drawn)	i	>57
Cc1ccc(-c2cc(C(=O)N3CCN(C(=O)c4ccco4)CC3)no2)cc1	i	>57
CCn1c(SCC(=O)N2c3ccccc3Sc3ccccc32)nnc1-c1ccco1	i	>57
CCOc1ccc(C2CC(c3cccc(OC)c3OC)n3nnnc3N2)cc1Cl (stereo not drawn)	i	>57
Cc1cc(NC(=O)CCC(=O)N(Cc2cccs2)C(C(=O)NC2CCCC2)c2ccncc2)no1 (stereo not drawn)	i	>57
Cc1ccc(NC(=O)Cn2c(=O)n(CCCC(=O)NCc3ccco3)c(=O)c3ccccc32)cc1	i	>57

Arranged by heavy-atom count (rising): part of the list above
SMILES	TsaE inh	PK Bst
C[C@]12CC[C@@H]3c4ccc(O)cc4CC[C@H]3[C@@H]1CC[C@@H]2O	i	/
CCn1c(SCC(=O)N2c3ccccc3Sc3ccccc32)nnc1-c1ccco1	i	>57
Cc1cc(NC(=O)CCC(=O)N(Cc2cccs2)C(C(=O)NC2CCCC2)c2ccncc2)no1 (stereo not drawn)	i	>57
